Source: PubChem
MT1-MMP act inh: blockers of MT1-MMP proenzyme processing, primary screen, HT1080 RFP-PRO-GFP cells, GFP/RFP fluorescence | Matrix metalloproteinase-14 (Homo sapiens), P50281 | GFP/RFP ratio fluorescence, overnight; percent of plate control window, DMSO zero | GFP/RFP ratio change, % at 20 µM | actives 0.061% (n = 360,000) | AID 651647, 2012;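 active = GFP/RFP ratio change of at least 30% with cell ATP level not reduced by more than half and red fluorescence within 50% of control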; note: strong numbers were not always called active
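Assay system: RFP-PRO-GFP reporter HT1080 cells; read-out basis: GFP/RFP fluorescence ratio; benchmarks: DMSO wells and RFP-L50D-GFP cells; doses: 20 µM single dose, 1% DMSO; schedule: overnight cell settling, then overnight compound exposure, 37 °C, 5% CO2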
CSC inhib: cancer stem cell viability inhibitors, primary screen, luminescence. actives 1.1% (n = 300,000). inhibition, % at 7.5 µM. AID 2717, 2010. cancer stem cell-like cells viability;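 active = mean at 75% or more and at least half the replicates too; inconclusive = mean and replicates disagree; tested in HMLE shEcad cells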;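 note: 0% = median of negative and 100% = median of positive control wells; the first replicate is given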
Yeast UUG start: modulators of yeast start codon fidelity, primary screen, whole organism, S. cerevisiae, single point, plate reader; S. cerevisiae UUG-firefly luciferase reporter, luminescence/redox ratio; actives 0.13% (n = 350,000); activity score, % at 18.7 µM; AID 602363, 2012;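 active = replicate mean at a twofold rise or more, about +100% in these data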;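 note: firefly luciferase made from a UUG start codon reports start codon fidelity; reporter light over untreated wells divided by growth signal over untreated wells; some hits fall short of that in this replicate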
Env fusion inh: inhibitors of HIV-1 Env-driven cell-cell fusion, primary screen, HeLa-JRFL effector, CEM21 target cells, luciferase; AID 651610, 2012; inhibition, % at 12.3 µM; actives 1.1% (n = 360,000);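 active = mean replicate inhibition score of at least 50 and every replicate individually at or above 50; inconclusive = only one of the two criteria met; inactive = mean below 50 and not all replicates reaching 50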;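 note: 0% = plate neutral controls and 100% = maraviroc near 300 nM; one replicate is shown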
eIF4H FP inh: human eIF4H binding inhibitors, primary screen, translation initiation inhibitor project, biochemical, uHTS, fluorescence polarization. Eukaryotic translation initiation factor 4H (Homo sapiens), Q15056. eIF4H fluorescence polarization binding assay. inhibition, % at 35 µM. actives 0.94% (n = 290,000);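 active = 50% or more with normal probe brightness, or confirmed in later tests; inconclusive = above 50% with abnormal brightness, or retests that disagree; inactive = below 50% or failed in later tests; about a fifth of its hits are not listed in these tables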;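 note: calls also rest on retests at 20 µM and on dose response follow-up; 0% = protein and probe with vehicle and 100% = probe without protein; strong numbers were not always called active; many hits fall short of the cut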
PABP polyA inh: PABP poly(A) RNA binding inhibitors, primary screen, biochemical, fluorescence polarization, uHTS; actives 1% (n = 290,000); inhibition, % at 35 µM; Polyadenylate-binding protein 1 (Homo sapiens), P11940; AID 2014, 2009;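 active = 50% or more with normal probe brightness, or confirmed in later tests; inconclusive = above 50% with abnormal brightness, or retests that disagree; inactive = below 50% or failed in later tests; about a fifth of its hits are not listed in these tables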;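 note: calls also rest on retests at 20 µM and on dose response follow-up; controls were probe without protein and protein plus probe with vehicle; some compounds called inactive have numbers as strong as hits; many hits fall short of the cut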
Rce1 inhib: yeast Rce1p protease inhibitors, primary screen, biochemical, fluorescence, cell-free homogeneous | yeast membranes, quenched prenylated peptide cleavage fluorescence | calls only | actives 0.27% (n = 290,000) | AID 2563, 2010;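 active = fall in fluorescence gain of 50% or more versus controls, with final raw signal at or below 3038400; inconclusive = same 50% fall but final raw signal above 3038400; inactive = fall in fluorescence gain under 50%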;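 note: plate controls were neutral control wells for no effect and wells lacking membranes for full effect; tested at 10 µM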
Target sequence (Q03530 whole entry, looked up): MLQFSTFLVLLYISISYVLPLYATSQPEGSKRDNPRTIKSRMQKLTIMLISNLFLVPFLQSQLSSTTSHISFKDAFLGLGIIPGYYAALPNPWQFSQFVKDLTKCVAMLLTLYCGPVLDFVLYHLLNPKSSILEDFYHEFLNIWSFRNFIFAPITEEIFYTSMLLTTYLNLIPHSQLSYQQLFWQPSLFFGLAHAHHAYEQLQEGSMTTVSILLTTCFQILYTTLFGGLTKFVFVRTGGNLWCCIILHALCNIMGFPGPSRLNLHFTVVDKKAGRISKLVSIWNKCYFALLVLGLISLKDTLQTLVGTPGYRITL
MT1-MMP act inh RFP: second read-out of MT1-MMP act inh, no call of its own (marks repeat the call); RFP signal change, %; measured here: RFP expression control read;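 0 = vehicle wells; hits needed this value within 50% of zero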
Active calls of the source: *; i = inactive; ? = inconclusive; . = no result given; [ ] = dose if it differs, or a comment. These rows are one share of the data. The share of hits here may be higher or lower than overall.

SMILES	MT1-MMP act inh	MT1-MMP act inh RFP	CSC inhib	Yeast UUG start	Env fusion inh	eIF4H FP inh	PABP polyA inh	Rce1 inhib
Cc1cccc(-n2ncc3c(N(C)C4CCCCC4)ncnc32)c1	-5	-11	55	-90	-89	-3	6	i
CCOC(=O)/C(N)=C/c1ncc(C(F)(F)F)cc1Cl	1	4	11	.	.	-1	0	i
Cc1ccc(S(C)(=O)=N/C=C2\C(=O)c3sccc3N(C)S2(=O)=O)cc1 (centres undefined)	-3	1	-8	.	-10	-1	4	i
C=CC[C@H](CC(=O)N(CCO)Cc1ccccc1)C(=O)NCCOC(=O)[C@H](CC=C)CC(=O)OC(C)(C)C	-2	1	.	4	-11	.	.	.
C/C=C/C=C/C(=O)N1CC2(CC(c3cccc(NC(=O)/C=C/C)c3)=NO2)C[C@@H]1C(N)=O (some centres undefined)	1	0	-19	-7	24	2	-1	i
O=C(Cc1ccccc1F)NCC(c1ccco1)N1CCCCC1 (centres undefined)	2	4	.	.	0	1	13	i
Nc1nonc1-c1nc2ccccc2n1CC(=O)O	-3	-1	-4	-14	-68	7	18	i
COc1ccc(C2NC(=O)N(C)C3=C2C(=O)CC(C)(C)C3)cc1OC (centres undefined)	1	6	2	.	13	1	-8	i
O=C(NC(=S)Nc1ccccn1)c1ccccc1	3	-1	9	-43	-64	12	5	i
Cn1cccc1/C=C1\SC(=S)N(NC(=O)c2cccc(Cl)c2)C1=O	-8	3	3	.	8	?	10	.
CCOCCCNS(=O)(=O)c1ccc2c(c1)CCN2C(C)=O	3	4	-4	-10	-43	-14	-11	i
Oc1ccc(Cl)cc1CNCc1ccc(Cl)cc1	6	2	9	-5	-5	.	.	.
CCCN(C(=O)CSCc1c(C)noc1C)c1c(N)n(Cc2ccccc2)c(=O)[nH]c1=O	1	3	-12	-8	2	.	.	i
O=C(CN1C(=O)NC2(CCCCCCC2)C1=O)Nc1cccc(Br)c1	12	0	11	-6	8	.	.	.
CCN1C(=NCC2CC2)N[C@@H](c2cccc(C(F)(F)F)c2)C(C(=O)OC)=C1C	2	-1	4	-14	.	2	44	i
COc1ccc(-c2ccc3oc(-c4ccc(OC)cc4)c(C#CCO)c3c2)cc1	10	-28	10	0	48	.	.	i
CCN(c1cccc(C)c1)S(=O)(=O)c1ccc2c(c1)N(C(C)=O)CCS2	0	-4	.	3	7	-2	8	i
Cc1cccc(NC(=O)c2ccc(C)c(S(=O)(=O)N3CCCCC3)c2)n1	3	0	-13	.	3	.	.	i
CSc1nc(-c2ccccc2)nn1S(=O)(=O)c1ccc(Cl)cc1	0	-1	-3	-6	5	2	0	i
Cc1nc2ccccc2c(=O)n1/N=C/c1ccc([N+](=O)[O-])o1	.	.	31	.	.	24	45	i
Cc1c(Cl)cccc1NS(=O)(=O)c1cccc2nsnc12	0	2	-10	0	-19	5	4	i
O=C(c1ccc(SCc2cccc(Br)c2)c([N+](=O)[O-])c1)N1CCN(c2ccccn2)CC1	0	-4	53	.	-4	4	-11	i
O=C(O)c1ccc(N/N=C/c2ccc(OC(=O)c3ccccc3Cl)cc2)cc1	2	6	-7	.	51	2	47	i
O=[N+]([O-])c1ccccc1S(=O)(=O)Nc1nc2ccccc2s1	-1	-1	-4	-19	-4	18	22	i
COCC(C)NC(=O)C1c2ccccc2Oc2ccccc21 (centres undefined)	0	3	-6	-3	5	1	8	i
Cc1nc(NN)c2c3c(sc2n1)COC(C)(C)C3	0	-4	-15	-26	15	-11	-14	i
CC(=O)N[C@@H]1C=C[C@@H](CC(=O)NCc2ccc(Cl)cc2)O[C@@H]1CO	2	4	.	-5	-1[16.7 µM]	.	.	.
O=C(CSCc1ccco1)c1cccs1	2	6	-11	.	.	-3	8	i
CC1CN(C(=O)COC(=O)Cc2c(F)cccc2Cl)CC(C)O1 (centres undefined)	-1	2	6	-6	.	.	.	.
Cc1ccc(S(=O)(=O)N2CCC(C(=O)N3CCN(c4ccccn4)CC3)CC2)cc1C	2	-1	.	-2	-4	.	.	.
CN1CCN(CCCC(=O)c2ccc(F)cc2)CC1	5	3	-10	-28	-223	-7	25	i
CCOC(=O)C(Cc1ccccc1)NC(C)=O (centres undefined)	8	2	-1	.	-5	-12	-5	.
COc1cccc(Nc2ncc(C(=O)O)c3ccccc23)c1	4	-1	-2	-5	.	-4	2	i
O=C(Nc1ccc2[nH]ncc2c1)c1cccc(F)c1	-2	3	-4	-8	-6	-2	3	i
COc1ccc(C2/C(=C(/O)c3ccccc3)C(=O)C(=O)N2CCCN2CCOCC2)cc1 (centres undefined)	1	1	-4	-11	0	6	-6	i
Cc1ccc(S(=O)(=O)NCCSC(C)(C)C)cc1	5	3	-9	-11	-32	-6	-12	.
CCO/C=C/C(O)(CNC(=O)COc1ccccc1F)C(F)(F)F (centres undefined)	1	5	-4	-11	-6	3	4	i
CCOC(=O)CCNC(=O)N1CCCC(C(=O)c2cccc(Cl)c2)C1 (centres undefined)	-1	-2	1	-2	6	2	6	i
CCOc1ccccc1CNC(=O)C1CCN(c2nc3ccccc3o2)CC1	2	-1	.	-4	33	-14	8	i
O=C(c1n[nH]c(=O)c2ccccc12)N1CCN(c2ccccc2)CC1	-6	3	-9	-8	.	-7	-2	i
Cc1ccc(N(C(=O)C(F)(F)F)C(C(=O)NC2CCCCC2)c2cccs2)cc1 (centres undefined)	1	2	.	-15	.	-7	-5	i
Cn1c(CCN2CCCC2)nc2cc(NS(=O)(=O)c3ccccc3)ccc21	-8	-7	24	-25	-6	-20	-10	i
O=C(O)/C=C/C(=O)N1CCc2ccccc21	0	3	-14	.	-5	5	4	i
CCCCCN1CC(O)=C(c2ccccc2)C1=N	-3	-5	3	-9	-21	2	-4	i
CC(C)n1cc(NC(=O)c2cc(-c3ccccc3)on2)cn1	11	-1	48	-16	.	3	2	i
O=C(NCc1cccnc1)c1cc(C2CCCCN2C(=O)c2ccc(Cl)cc2)on1 (centres undefined)	2	3	.	-11	-8	.	.	.
O=C(Nc1ccccc1Oc1ccccc1)[C@@H]1O[C@H](CO)[C@H](O)[C@H](O)[C@H]1O	2	6	.	-16	-5	.	.	.
CCC(=O)c1ccc(OCC(=O)OCC(=O)NCCCc2ccccc2)cc1	1	5	-11	5	-11	.	.	i
CN1C(=O)c2ccccc2Sc2ccc(C(=O)O)cc21	-2	-1	-8	22	7	-11	8	i
O=C(CSc1nc(=O)n(CCCN2CCOCC2)c2c1CCCC2)Nc1cccc([N+](=O)[O-])c1	-1	-1	-19	-31	-1	.	.	i
CC(=O)Nc1ccc(SC[C@H](Cc2ccccc2)N2CC[C@@H](C(C)(C)C)CCC2=O)cc1	1	0	13	-15	17	.	.	.
Cc1ccc(C(=O)CSc2nc(-c3ccccc3)cc(=O)[nH]2)cc1	5	6	5	-9	7	4	0	i
Cc1onc(-c2c(F)cccc2Cl)c1-c1nnc(-c2ccc(C(F)(F)F)cc2)o1	-4	-12	28	-8	19	5	2	i
COc1ccc2nc(N3C(=O)CNC3=S)sc2c1	2	-1	-11	-1	31	11	12	i
CC1=CC(C)(C)n2c(O)c(N=NC(N)=S)c3c(C)c(C)cc1c32	-1	-3	.	-12	3	-10	-4	i
Cc1ccc(NC(=S)N(CCCN2CCOCC2)Cc2ccco2)cc1Cl	-1	-1	-9	-22	15	-6	-2	i
CCCCNC(=O)CNC(=O)c1cccs1	-3	0	-13	-16	-4	6	0	i
COC(=O)c1ccc(Sc2ccccc2NS(=O)(=O)c2ccc(C)cc2)nc1	0	-1	14	4	22	1	-7	i
Cc1ccc(NC(=O)N2CCCC2C(=O)Nc2ccc(-n3cnnn3)c(C)c2)cc1 (centres undefined)	-2	-2	-8	-20	.	2	1	i
Cn1c2ccccc2c2c(C(=O)N3CCN(c4ccccc4)CC3)cn(C3CCCC3)c(=O)c21	7	-7	56	-1	-46	7	15	.

13 entries from above, with two lines to a compound.
Screens in order: MT1-MMP act inh, MT1-MMP act inh RFP, CSC inhib, Yeast UUG start, Env fusion inh, eIF4H FP inh, PABP polyA inh, Rce1 inhib
O=C(O)/C=C/C(=O)N1CCc2ccccc21
    0, 3, -14, ., -5, 5, 4, i
CCCCCN1CC(O)=C(c2ccccc2)C1=N
    -3, -5, 3, -9, -21, 2, -4, i
CC(C)n1cc(NC(=O)c2cc(-c3ccccc3)on2)cn1
    11, -1, 48, -16, ., 3, 2, i
O=C(NCc1cccnc1)c1cc(C2CCCCN2C(=O)c2ccc(Cl)cc2)on1 (centres undefined)
    2, 3, ., -11, -8, ., ., .
O=C(Nc1ccccc1Oc1ccccc1)[C@@H]1O[C@H](CO)[C@H](O)[C@H](O)[C@H]1O
    2, 6, ., -16, -5, ., ., .
CCC(=O)c1ccc(OCC(=O)OCC(=O)NCCCc2ccccc2)cc1
    1, 5, -11, 5, -11, ., ., i
CN1C(=O)c2ccccc2Sc2ccc(C(=O)O)cc21
    -2, -1, -8, 22, 7, -11, 8, i
O=C(CSc1nc(=O)n(CCCN2CCOCC2)c2c1CCCC2)Nc1cccc([N+](=O)[O-])c1
    -1, -1, -19, -31, -1, ., ., i
CC(=O)Nc1ccc(SC[C@H](Cc2ccccc2)N2CC[C@@H](C(C)(C)C)CCC2=O)cc1
    1, 0, 13, -15, 17, ., ., .
Cc1ccc(C(=O)CSc2nc(-c3ccccc3)cc(=O)[nH]2)cc1
    5, 6, 5, -9, 7, 4, 0, i
Cc1onc(-c2c(F)cccc2Cl)c1-c1nnc(-c2ccc(C(F)(F)F)cc2)o1
    -4, -12, 28, -8, 19, 5, 2, i
COc1ccc2nc(N3C(=O)CNC3=S)sc2c1
    2, -1, -11, -1, 31, 11, 12, i
CC1=CC(C)(C)n2c(O)c(N=NC(N)=S)c3c(C)c(C)cc1c32
    -1, -3, ., -12, 3, -10, -4, i

Other results follow:
SMILES	MT1-MMP act inh	MT1-MMP act inh RFP	CSC inhib	Yeast UUG start	Env fusion inh	eIF4H FP inh	PABP polyA inh	Rce1 inhib
CC1CC(C)CN(S(=O)(=O)c2ccc3c(c2)CC(C)N3C(=O)C2CC2)C1 (centres undefined)	2	-3	0	-1	16	6	5	i
Cc1ccc2[nH]c(=O)c(CN(Cc3cccs3)S(=O)(=O)c3ccc4c(c3)OCCO4)cc2c1	-4	-5	-12	.	14	0	-8	i
O=S(=O)(NCCSCc1ccc(Cl)cc1Cl)c1ccc2c(c1)OCCO2	-5	0	17	-2	-2	4	1	i
CCC(Oc1ccccc1)C(=O)Nc1nnc(S(=O)(=O)Nc2ccccc2)s1 (centres undefined)	1	2	1	-16	-14	-2	-10	i
CC1(C(=O)Nc2cccc(C#N)c2)CCN1C(=O)C/C=C/c1ccccc1 (centres undefined)	4	-3	.	-11	11	.	.	.
CCCOc1ccc(C(=O)NNC(=S)NC(=O)c2ccccc2[N+](=O)[O-])cc1	6	1	10	-23	-11	18	-1	i

Reprinted at random: 2 compounds from above.
SMILES	MT1-MMP act inh	MT1-MMP act inh RFP	CSC inhib	Yeast UUG start	Env fusion inh	eIF4H FP inh	PABP polyA inh	Rce1 inhib
CC1(C(=O)Nc2cccc(C#N)c2)CCN1C(=O)C/C=C/c1ccccc1 (centres undefined)	4	-3	.	-11	11	.	.	.
CCC(Oc1ccccc1)C(=O)Nc1nnc(S(=O)(=O)Nc2ccccc2)s1 (centres undefined)	1	2	1	-16	-14	-2	-10	i
